KCNQ2 block – KCNQ2 potassium channel inhibitors, primary screen, cell-based, CHO-K1, FluxOR thallium flux, B-score (AID 2156) | 310,000 compounds, 1.1% hits | B-score at 10 µM | 20 min; stronger effect = lower value; only compounds with negative scores are shown here; some inactives read as strong as hits;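 active = fluorescence ratio B-score at most minus 3 library SDs, with starting brightness B-score within 2 library SDs, cut at about -5.5 in these data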
Target sequence (O88943 whole entry, looked up): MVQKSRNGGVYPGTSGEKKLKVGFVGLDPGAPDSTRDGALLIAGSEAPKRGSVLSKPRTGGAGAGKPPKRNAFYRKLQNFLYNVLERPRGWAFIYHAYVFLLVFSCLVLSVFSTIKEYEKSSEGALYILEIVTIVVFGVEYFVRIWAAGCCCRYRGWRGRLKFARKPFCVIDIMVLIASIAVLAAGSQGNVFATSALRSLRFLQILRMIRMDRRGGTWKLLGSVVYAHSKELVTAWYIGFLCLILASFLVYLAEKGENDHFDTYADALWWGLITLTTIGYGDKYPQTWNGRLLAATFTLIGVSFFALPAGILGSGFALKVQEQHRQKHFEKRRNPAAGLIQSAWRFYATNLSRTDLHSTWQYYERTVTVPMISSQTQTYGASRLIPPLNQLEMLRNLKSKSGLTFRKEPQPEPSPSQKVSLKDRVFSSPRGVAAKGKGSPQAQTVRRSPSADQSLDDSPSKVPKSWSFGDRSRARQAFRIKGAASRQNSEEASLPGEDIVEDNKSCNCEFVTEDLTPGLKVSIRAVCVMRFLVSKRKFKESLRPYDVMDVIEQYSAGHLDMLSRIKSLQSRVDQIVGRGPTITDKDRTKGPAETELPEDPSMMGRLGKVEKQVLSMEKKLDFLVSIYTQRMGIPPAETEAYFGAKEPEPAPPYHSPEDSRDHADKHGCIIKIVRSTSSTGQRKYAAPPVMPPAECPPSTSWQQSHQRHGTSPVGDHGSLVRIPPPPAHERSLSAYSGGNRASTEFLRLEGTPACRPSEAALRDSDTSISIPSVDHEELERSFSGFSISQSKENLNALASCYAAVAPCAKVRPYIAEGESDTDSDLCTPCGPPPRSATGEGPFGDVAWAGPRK
KCNQ2 block baseline – also measured in KCNQ2 block; calls as there; B-score; measured here: initial fluorescence intensity artifact check;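 brightness before thallium and not channel activity; 0 = typical well and far values either way flag optical interference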
* marks the source's active call; other numbers are inactive results; i = inactive.

SMILES | KCNQ2 block baseline | KCNQ2 block
COc1ccc(C)cc1Nc1n[n+](C)c(-c2c3ccccc3cc3ccccc23)s1 | 5.14 | i
Cc1ccc2oc(C(=O)N(C)CCC(O)c3ccccc3)c(C)c2c1 (configuration not stated) | 0.33 | i
O=C(O)c1cc2cc(Cl)cc(Cl)c2oc1=O | -0.69 | i
NC(=O)CNC(=O)c1ccc(Cl)cc1 | 2.19 | i
Cc1sc(NC(=O)/C=C/c2ccco2)c(C(=O)OC(C)C)c1C | 1.07 | i
COc1ccc(-c2nnn(CC(=O)N(CC(=O)NCCC(C)C)c3ccccc3)n2)cc1OC | 0.02 | i
Cc1ccc(C(=O)Nc2nc(C)c(C(=O)Nc3ccc4c(c3)CCC4)s2)cc1 | 0.03 | i
CCOc1ccc(N2CC(C(=O)Nc3ccccc3N3CCCC3)CC2=O)cc1 (configuration not stated) | 0.22 | i
Cc1ccccc1NC(=O)CCC(=O)N/N=C/c1cc([N+](=O)[O-])ccc1O | 1.44 | i
COc1ccc(-c2cn3c(n2)CCC3)cc1 | 0.49 | i
COC(=O)c1cccc(N2CCCC2=O)c1 | 0.76 | i
CC(C)(C)c1ccc(S(=O)(=O)NNC(=O)c2cc3ccccc3[nH]2)cc1 | 2.63 | i
Cc1cc(NCc2ccco2)n2ncnc2n1 | 0.15 | i
COc1ccccc1CN1CCNC(=O)C1CC(=O)O (configuration not stated) | -0.32 | i
O=C(CCn1ccc([N+](=O)[O-])n1)Nc1nccs1 | -0.27 | i
CCOC(=O)C1=C(CSc2nc(C)cc(C)c2C#N)OC(N)=C(C#N)C1c1ccccc1 (configuration not stated) | -0.54 | i
N#Cc1c(N(CCO)CCO)nc(N)c2c(N)nc3c(c12)CC(=O)N3CC1CCCO1 (configuration not stated) | -0.76 | i
COc1ccc(N2CCN(C(=O)c3ccc(NS(=O)(=O)c4ccccc4)cc3)CC2)cc1 | 0.08 | i
N=C(N)SCc1nc2ccccc2c(=O)n1-c1ccccc1 | -0.25 | i
O=C(Cn1nc(-c2ccc3c(c2)OCCO3)ccc1=O)Nc1ccc(N2CCOCC2)cc1 | 1.72 | i

Further results
SMILES | KCNQ2 block baseline | KCNQ2 block
Cc1cc(C)c(OCC(=O)Nc2ccc(N3CCOCC3)cc2)c(Br)c1 | 0.42 | i
COc1ccc(S(=O)(=O)N2CCN(c3nc4ccccc4nc3-n3nc(C)cc3C)CC2)cc1 | 0.73 | i
CNc1c([N+](=O)[O-])cnn1-c1ccc(F)cc1 | -1.6 | i
CC1CCC(NCCNC(=O)c2ccco2)CC1 (configuration not stated) | -0.33 | i
O=c1cc(CSc2nnc(-c3cccs3)n2Cc2ccccc2)nc2sc3ccccc3n12 | 2.39 | i
Cc1nc2c(-c3ccccc3)c(C)nn2c(C)c1CCC(=O)O | 0.02 | i
Cc1ccccc1-n1c(=O)cc(N2CCC3(CC2)OCCO3)[nH]c1=O | 0.04 | i
CCN(CC)S(=O)(=O)c1ccc(C)c(NC(=S)NNC(=O)C2CC2)c1 | -0.62 | i
CCn1cc(C(=O)NCc2ccc(OC)cc2)c(=O)c2ccc(C)nc21 | 1.54 | i
CCOc1ccc(/C=N/NC(=O)c2ccc(Cn3cc([N+](=O)[O-])cn3)o2)cc1 | 0.09 | i
c1ccc(COCCCn2cc(-c3ccccc3)nn2)cc1 | 0.84 | i
O=C(NCc1ccco1)c1cc(-c2cccnc2)nc2ccc(Cl)cc12 | 2.3 | i
COc1ccc(CCC(=O)Nc2ccccc2C(F)(F)F)cc1 | 0.23 | i
CC(=O)Cc1nsc(NC(=O)c2ccc(F)cc2)n1 | 1.9 | i
CC1C(=O)C(C)C(c2ccc([N+](=O)[O-])cc2)NC1c1ccc([N+](=O)[O-])cc1 (configuration not stated) | -0.92 | i
Oc1ccccc1-c1cc(-c2ccc(Cl)cc2)n[nH]1 | -0.23 | i
CCc1c(C(=O)c2ccc(Cl)cc2)oc2c(C)c3oc(=O)cc(C)c3cc12 | -1.74 | i
Cc1cccc(N(Cc2cc3cc(C)ccc3[nH]c2=O)C(=O)c2cccs2)c1 | 0.29 | i
Cc1ccccc1NS(=O)(=O)c1cccc(-c2nnc(-c3ccccc3)o2)c1 | 0.34 | i
CCN(CC)S(=O)(=O)c1ccc(NC(=O)CN(c2ccc(OC)cc2OC)S(C)(=O)=O)cc1 | -0.96 | i

One compound at a time, from the list above. Order of values: KCNQ2 block baseline | KCNQ2 block
Cc1ccccc1NS(=O)(=O)c1cccc(-c2nnc(-c3ccccc3)o2)c1 reads 0.34 | i
c1ccc(COCCCn2cc(-c3ccccc3)nn2)cc1 reads 0.84 | i
O=C(NCc1ccco1)c1cc(-c2cccnc2)nc2ccc(Cl)cc12 reads 2.3 | i
CCn1cc(C(=O)NCc2ccc(OC)cc2)c(=O)c2ccc(C)nc21 reads 1.54 | i
Oc1ccccc1-c1cc(-c2ccc(Cl)cc2)n[nH]1 reads -0.23 | i

(next part)
SMILES | KCNQ2 block baseline | KCNQ2 block
O=C(CN1C(=O)c2ccccc2S1(=O)=O)Nc1ccc(S(=O)(=O)N2CCCCCC2)cc1 | -0.85 | i
O=C(NNC1CC(=O)N(c2ccc(Cl)cc2)C1=O)c1ccco1 (configuration not stated) | -0.7 | i
COc1ccccc1N1CCN(C(CNS(=O)(=O)c2cc(F)ccc2F)c2cccnc2)CC1 (configuration not stated) | 0.58 | i
COC(=O)c1sc(N2C(=O)C(O)=C(C(=O)c3ccc(C)o3)C2c2cccs2)nc1C (configuration not stated) | 0.7 | i
C=CCOc1ccc(C(=O)Nc2ccc(OCC)cc2)cc1 | 0.01 | i
COc1ccc(Cn2nnnc2C(c2ccc(C)cc2)N2CCN(C3CCCC3)CC2)cc1 (configuration not stated) | 1.03 | i
COC1(NS(=O)(=O)c2ccc(Br)cc2)C(C)=CC(=O)C=C1C | 0.21 | i
Cc1cc(=O)[nH]c(N=N/C(=N/Nc2ccc(O)cc2)c2ccccc2)n1 | -0.32 | i
Cc1oc2c(CN(C)C)c(O)ccc2c(=O)c1-c1ccc2ccccc2n1 | -0.99 | i
OCCN1CCN(Cc2cccc(Oc3ccc(Cl)cc3)c2)CC1 | -1.71 | i
Cc1ccc(N2C(=O)NC3(CCCCC3)C2=O)cc1 | 1.31 | i
COc1ccccc1N1CCN(Cc2nnnn2CCc2ccccc2)CC1 | -1.28 | i
CCn1c(=O)c2sccc2n(Cc2ccc(C)cc2)c1=O | 0.35 | i
CCN(CC(=O)NCCc1ccc(S(N)(=O)=O)cc1)Cc1nc2ccccc2c(=O)[nH]1 | 1.94 | i
Nc1nonc1-c1noc(CCCOc2ccc(Cl)cc2Cl)n1 | -0.8 | i
CC(C)(C)C(=O)NNC(=O)c1cnccn1 | 1.64 | i
CCN(C(=O)c1cc2c(=O)n3ccccc3nc2n1C)C1CCCCC1 | -1.08 | i
O=C(CNS(=O)(=O)c1cccs1)NCc1ccc(F)cc1 | -2.84 | i
COc1cc(OC)c(C2CC(=O)N3CN(c4ccccc4)CSC3=C2C#N)cc1OC (configuration not stated) | 0.61 | i
CC(C)CC(C(=O)NCc1ccccn1)N1C(=O)c2ccccc2C1=O (configuration not stated) | 3.44 | i

Going on with the list:
SMILES | KCNQ2 block baseline | KCNQ2 block
COc1ccc(/C=N/N=C2/NC(=O)C(CC(=O)O)S2)cc1OCc1ccc(Cl)cc1 (configuration not stated) | -0.03 | i
CN1c2cccc3cccc(c23)N(C)C1(C)C | -0.4 | i
Cc1cc(OC(F)F)ccc1NC(=S)NCCc1ccccc1 | 0.07 | i
COc1cccc(C(C(=O)NC2CCCC2)N(Cc2ccco2)C(=O)c2ccco2)c1OC (configuration not stated) | -1.11 | i
CC(C(=O)Nc1ccc(F)c(F)c1F)N(C)Cc1cccs1 (configuration not stated) | -0.41 | i
C=CCn1c(P(=O)(O)c2ccccc2)nc2ccccc21 | -0.19 | i
O=C(O)C1Cc2ccccc2CN1C(=O)CCl (configuration not stated) | -0.67 | i
Cc1nc(CNC(=O)C2CCC(=O)N(Cc3cccc(F)c3)C2)sc1C (configuration not stated) | -0.05 | i
Cc1cc2cc(CN(Cc3cccs3)C(c3nnnn3C(C)(C)C)C(C)C)c3nnnn3c2cc1C (configuration not stated) | 0.2 | i
O=S(=O)(Nc1ccc2c(c1)OCCO2)c1cccc2nsnc12 | 2.07 | i
CCN(CC(=O)Nc1c(F)cccc1F)C(=O)c1ccc(C#N)cc1 | 0.62 | i
CCOc1ccccc1NCc1cc(=O)oc2cc(C)c(O)cc12 | -1.17 | i
Cc1ccc(C(=O)N/C(=C\c2ccc(-c3ccc(Cl)cc3)o2)C(=O)NCCCN(C)C)cc1 | -0.43* | -7.19*
O=C(NN1CCCCC1)c1cccc2ccccc12 | -0.13 | i
CC(/C=C/c1ccco1)=N\NC(=O)COc1ccc(C)c(C)c1 | 0.98 | i
COc1ccccc1Oc1nc(-c2ccccc2)cc(C)c1S(C)(=O)=O | -1.22 | i
O=C1CCCC2=C1C(c1ccc(Cl)cc1)n1c(s/c(=C\c3ccc4ccncc4c3)c1=O)=N2 (configuration not stated) | -1.17 | i
CCC(=O)NC(NC(=S)Nc1ccc(S(N)(=O)=O)cc1)C(Cl)(Cl)Cl (configuration not stated) | 0.28 | i
CCCn1c(=N)n(CC(=O)C(C)(C)C)c2ccccc21 | -0.58 | i
CCc1cccc(NC(=O)CCS(=O)(=O)c2ccc(Br)cc2)c1 | 0.22 | i

More compounds follow.
SMILES | KCNQ2 block baseline | KCNQ2 block
Cc1cccc(S(=O)(=O)N2CCCc3ccccc32)c1 | 0.05 | i
CCC(=O)Nc1ccc2nc(C3CC3)n(Cc3ccc(C(C)(C)C)cc3)c(=O)c2c1 | 0.52 | i
COCCNC(=O)CN1CCC(NC(=O)Nc2ccccc2)CC1 | -0.07 | i
COC(=O)C1=C(C)N(Cc2ccccc2)C(=NCc2cc(OC)c(OC)c(OC)c2)N[C@H]1c1cccc(F)c1 | 0.43 | i
O=c1sc2ccccc2c(N2CCN(c3ccccc3)CC2)c1[N+](=O)[O-] | 0.86 | i
CCCC[n+]1ccn(C2=C([O-])c3ccccc3C(=O)/C2=N\S(=O)(=O)c2ccccc2)c1 | -0.05 | i
COc1cccc(CNC(=O)C(NS(=O)(=O)c2ccc3c(c2)CCN3C(C)=O)C(C)C)c1 (configuration not stated) | 1.32 | i
Clc1ccc(N2CCN(c3nc4nonc4nc3N3CCSCC3)CC2)nc1 | -0.52 | i
O=C(N/N=C/C=C/c1cccc([N+](=O)[O-])c1)c1ccncc1 | 0.57 | i
CC(C)CC(/C(O)=C(\C#N)c1nc2ccccc2[nH]1)N1C(=O)c2ccccc2C1=O (configuration not stated) | -0.77 | i
O=C(CSc1cccc2cccnc12)Nc1cccc(S(=O)(=O)N2CCOCC2)c1 | 0.26 | i
Cc1noc(NS(=O)(=O)c2ccc(NC(=O)c3ccc(Br)o3)cc2)c1C | 2.38 | i
Nc1c(Cl)cc(-c2csc(N3CCCC3c3nc4cc(Cl)c(Cl)cc4n3CCOCCO)n2)cc1Cl (configuration not stated) | -0.75 | i
Cc1ccc(CSc2nc3[nH]ncc3c(=O)[nH]2)cc1 | 0.22 | i
COc1ccc(C2C3=C(CCCC3=O)Nc3nc(C(F)(F)F)nn32)cc1OC (configuration not stated) | 0.21 | i
CCOC(=O)CNC(c1ccccc1)c1cc(Br)ccc1NC(C)=O (configuration not stated) | 0.45 | i
Cc1c(NC(=O)CN2CCN(c3cccc(Cl)c3)CC2)c(=O)n(-c2ccccc2)n1C | 0.72 | i
CC(C)Cc1nc(N2CCOCC2)c(C#N)c2c1CCC2 | -0.02 | i
CCOC(=O)CC1C(=O)NCCN1C(=O)COc1ccc(Br)cc1C (configuration not stated) | -0.23 | i
Cc1cc(=O)oc2c3c(cc(OCC(=O)N[C@@H](C)C(=O)O)c12)OC(C)(C)CC3 | -1.61 | i

Among those listed so far, 4 contain an aryl thioether with sulfur outside any ring.
SMILES | KCNQ2 block baseline | KCNQ2 block
CCOC(=O)C1=C(CSc2nc(C)cc(C)c2C#N)OC(N)=C(C#N)C1c1ccccc1 (configuration not stated) | -0.54 | i
O=c1cc(CSc2nnc(-c3cccs3)n2Cc2ccccc2)nc2sc3ccccc3n12 | 2.39 | i
O=C(CSc1cccc2cccnc12)Nc1cccc(S(=O)(=O)N2CCOCC2)c1 | 0.26 | i
Cc1ccc(CSc2nc3[nH]ncc3c(=O)[nH]2)cc1 | 0.22 | i

Later entries
SMILES | KCNQ2 block baseline | KCNQ2 block
OC[C@H]1OC(O)C[C@@H](O)[C@@H]1O (some centres not stated) | -2.1 | i
COc1ccc(/C=C/C(=O)c2c(C)cc(C)[nH]c2=O)c2ccccc12 | -0.42 | i
CC(=O)c1ccccc1Oc1nc(CN2CCOCC2)nc2scc(-c3cccs3)c12 | -0.26 | i
O=C(O)c1ccc(N2CC3CC(C2)c2cccc(=O)n2C3)c(NC(=S)Nc2ccc(Br)cc2)c1 (configuration not stated) | 0.12 | i
CC(C)C(C(=O)Nc1nccs1)N1C(=O)c2ccccc2C1=O (configuration not stated) | 0.02 | i
Cc1sc2nc(CN(Cc3cccs3)C(=O)NC3CCCCC3)[nH]c(=O)c2c1C | 0.81 | i
Fc1cccc2sc(N3CCCCC3)nc12 | 0.4 | i
O=C(c1cc2ccccc2o1)N1CCN=C1SCc1cccc(F)c1 | -0.58 | i
CCCC(=O)Oc1ccccc1C1SCc2cc(C)c(C)cc2CS1 | 0.37 | i
CCOC(=O)/C(C#N)=C\c1ccc(O)c(OC)c1 | -1.06 | i
Cc1noc(C)c1COC(=O)C1(c2cccc(F)c2)CCCC1 | -0.64 | i
CCOc1ccccc1NC(=O)CSc1ccc([N+](=O)[O-])cc1 | 0.1 | i
COc1ccccc1NC(=O)c1nn(-c2cccc(C(F)(F)F)c2)ccc1=O | 0.22 | i
COc1ccc(C2NC(=O)c3ccccc3N2)cc1 (configuration not stated) | 0.94 | i
COC(=O)c1ccccc1NC(=O)CN(c1ccccc1)S(=O)(=O)N(C)C | 1.24 | i

The list is partial; the hit share may differ from the screen's.
